Source: PubChem BioAssay (several laboratories)
Autofluor counter: counter-screen for toxin protease inhibitors: compound fluorescence | compound autofluorescence counterscreen, microsphere flow cytometry; hits give high values | fluorescence intensity (no concentration beside the values) | 3.1% of 360,000 active;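 active means at least 3 SD above the mean of all compounds, about 16000 in these data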;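 further: 100 nL of 1 mM stock went into each well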
RN4220 kill: kills Staphylococcus aureus RN4220 | S. aureus RN4220 growth, OD600, 16 h | inhibition, % (concentration not given with the values) | 0.33% of 330,000 active;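 active means z-score of -3 or lower and OD600 up to 0.18 on both plates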;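 further: plate controls were untreated cells for no effect and reference antibiotic for full effect; stock transfer was 100 nL into about 80 µL; one replicate is shown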
PrP UTR inh: inhibition of PrP 5' UTR reporter expression; cell-based PrP 5' UTR mRNA reporter, plate reader; inhibition, % (concentration not given with the values); 0.35% of 340,000 active;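 active means every replicate at 50% or more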;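 further: 0 = median of the neutral control wells; tested in H4 reporter cells; numbers are from one replicate; inactives centre near -14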
BJeLR viability: kills HRASV12-expressing BJeLR cells. AID 1554. inhibition, % (test concentration not listed). 0.17% of 300,000 active. BJeLR (HRASV12) viability, CellTiter-Glo ATP luminescence, 48 h; reference of the scale not given here;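 active means replicate mean above 50%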;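 further: 50 nL library stock added to about 25 µL; numbers are from one replicate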
Mtb hypoxia inh: inhibitors of hypoxia-regulated fluorescent reporter in Mycobacterium tuberculosis; M. tuberculosis hypoxia-regulated fluorescent reporter, fluorescence; fluorescence inhibition, % (concentration not given with the values); 0.1% of 300,000 active; AID 1159583;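 active means 35 to 45% if threefold the growth effect, above 45% if 1.5-fold the growth effect; inactive means the rest, general growth blockers included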;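 further: wells of about 50 µL received 100 nL stock; 0% = vehicle wells and 100% = reference inhibitor wells; whole bacteria with a GFP reporter of the hypoxia response; strong numbers were not always called active; many hits fall short of the cut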
ugtP null kill: kills S. aureus RN4220 lacking UgtP. S. aureus RN4220 ugtP deletion, OD600 growth, 16 h; some inactives read as strong as hits. growth inhibition, % (concentration not given with the values). 0.54% of 330,000 active. AID 1259309;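 active means z-score under -3 and OD600 up to 0.15 on both plates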;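 further: plate controls were untreated wells for no effect and antibiotic for full effect; wells of about 80 µL received 100 nL stock; the first replicate is given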
Mtb hypoxia inh growth: second read-out of Mtb hypoxia inh, no call of its own (marks repeat the call); growth inhibition, %; measured here: M. tuberculosis growth (absorbance);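 0% = vehicle and 100% = reference antibiotic; read after six days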
Starred values were filed as active, the others as inactive; nt = not tested or not shown.

SMILES	Autofluor counter	RN4220 kill	PrP UTR inh	BJeLR viability	Mtb hypoxia inh	Mtb hypoxia inh growth	ugtP null kill
Cc1ccc(NC(=O)NC2CC(=O)N(c3ccc4c(c3)OCCO4)C2)cc1 (centres undefined)	5067	-0.3	-4	0	5	7	0
CCOc1cccc(-c2c(C(=O)N/N=C/c3sccc3C)nnn2-c2nonc2N)c1	5013	nt	-22	-16	nt	nt	nt
O=C(Nc1ccc(Cl)cn1)C1CC1	3384	-3.9	-22	3	9	15	1
CCOC(=O)N1CCN(Cc2nc(N)nc(Nc3ccc(Oc4ccccc4)cc3)n2)CC1	2934	4.9	-6	nt	nt	nt	-15
O=C(COc1ccc(-c2ccccc2)cc1)N1CCN(C(=O)c2cccs2)CC1	4555	3.4	-26	5	15	7	2
CC(=O)C(Cc1ccc(Cl)nc1)(Cc1ccc(Cl)nc1)C(C)=O	3172	15	-12	-8	18	8	-68
C/C=C(\C)C(=O)NCCN1C2=NC[C@H](Cc3ccccc3)N2C[C@H]1Cc1ccc(O)cc1	3998	nt	-9	10	nt	nt	nt
CCOc1ccccc1NC(=O)C12CC3CC(C1)CC(c1ccc(C)cc1)(C3)C2	5607	-1.4	2	-3	3	8	-21
Cc1ccc(N2CC(C(=O)Nc3ccc(S(=O)(=O)N4CCCC4)cc3)CC2=O)cc1 (centres undefined)	8904	4.9	-21	-1	-3	2	2
CCOC(=O)c1nnn(-c2nonc2N)c1-c1ccccc1Cl	4241	nt	-15	-14	nt	nt	nt
CSc1nc(N(CCO)CCO)c2sc3nc(-c4ccco4)c4c(c3c2n1)CCC4	4071	-0.7	-13	-1	nt	nt	-12
COC(=O)COc1ccc(S(=O)(=O)N2CCN(c3ccccc3F)CC2)cc1	4750	6.0	-3	0	nt	nt	4
Cc1cccc(C(=O)N2CCC(c3nc(-c4ccc(S(=O)(=O)N5CCOCC5)cc4)no3)CC2)c1	13449	3.4	-60	9	0	2	-5
Cc1cccc(N=NC(=CO)C(=O)c2ccc(Br)cc2)c1	nt	67	nt	nt	2	-2	94
CC(C)c1c(C(=O)NN=Cc2ccc(C(F)(F)F)cc2)nnn1-c1nonc1N	nt	-0.5	nt	nt	-3	-2	-7
CCOc1ccc(Cn2c(SCCCCC#N)nc3c2c(=O)n(C)c(=O)n3C)cc1OCC	4345	-4.8	-5	-3	nt	nt	0
COC(=O)c1ccc(CN2CCN(CCc3ccccc3)C(CCO)C2)cc1 (centres undefined)	4274	1.8	-24	-2	10	8	-3
COc1ccc(CSc2nc(CSC)cc(N3CCOCC3)n2)cc1	9509	-0.5	15	9	-1	8	8
O=C(O)c1ccc(N=Cc2c(O)n(Cc3ccc(F)cc3)c(=O)[nH]c2=O)cc1	5161	9.4	-11	6	1	4	5
CC(C)n1c(Nc2ccccc2)nc2ccccc21	nt	-6.2	-5	-4	14	0	7
Cc1ccc(-n2c(C)cc(C(=O)OCC(=O)N(CC(C)C)C3CCS(=O)(=O)C3)c2C)cc1 (centres undefined)	3850	1.5	-24	-11	1	2	-2
CCOc1ccc(-n2nnc3c(=O)n(C/C=C/c4ccccc4)cnc32)cc1	6532	nt	-37	5	nt	nt	nt
COc1ccc2[nH]c(=O)c(CN(Cc3ccccc3OC)Cc3nnnn3CC3CCCO3)cc2c1 (centres undefined)	5330	12	-31	-4	-2	2	3
O=C(CSc1nnc(CNC(=O)c2ccc(F)cc2)o1)Nc1ccc2c(c1)OCO2	6130	1.4	-17	-15	7	-5	10

Filtered by structure, the compounds so far containing two or more sulfur atoms.
SMILES	Autofluor counter	RN4220 kill	PrP UTR inh	BJeLR viability	Mtb hypoxia inh	Mtb hypoxia inh growth	ugtP null kill
CSc1nc(N(CCO)CCO)c2sc3nc(-c4ccco4)c4c(c3c2n1)CCC4	4071	-0.7	-13	-1	nt	nt	-12
COc1ccc(CSc2nc(CSC)cc(N3CCOCC3)n2)cc1	9509	-0.5	15	9	-1	8	8

Other entries follow.
SMILES	Autofluor counter	RN4220 kill	PrP UTR inh	BJeLR viability	Mtb hypoxia inh	Mtb hypoxia inh growth	ugtP null kill
N#CCCN(C(=O)COC(=O)C1CCN(c2ccc(C(F)(F)F)cn2)CC1)c1ccc(F)cc1	nt	-0.6	-18	2	-2	-2	16
CCOCCCn1c(SCC(=O)Nc2cccc(OC)c2)nc2ccccc2c1=O	4127	1.8	7	6	-4	3	-3
Cc1ccc(OCC(=O)NN2C(=O)c3ccccc3C2=O)cc1	6199	2.1	-8	2	13	3	8
Cc1ccccc1NC(=O)CSc1nc2c(c(-c3ccco3)c1C#N)CCCC2	11113	3.8	-3	6	-7	4	-1
COc1ccc(C(CC(=O)O)NC(=O)COc2ccccc2OC)cc1OC (centres undefined)	2150	-0.3	-11	-1	nt	nt	0
O=C(CN(Cc1ccccc1)S(=O)(=O)c1ccccc1)NN=Cc1ccc2c(c1)OCO2	nt	0.7	nt	nt	13	5	-4
CCOC(=O)c1cnc(-n2nc(C)cc2C)nc1-n1nc(C)cc1C	16791*	5.7	0	9	15	2	8
CN1CC2([N+](=O)[O-])CC=C(Oc3ccccc3)C([N+](=O)[O-])(C1)C2 (centres undefined)	4551	3.8	-10	-3	11	19	-5
Cc1cc(Cl)ccc1NC(=O)C(=O)N/N=C/c1ccc2c(c1)OCO2	3835	nt	-16	-1	nt	nt	nt
CCC1C(=NO)CC(c2ccco2)NC1c1ccco1 (centres undefined)	nt	5.6	nt	nt	9	1	9
Nc1ccccc1S(=O)(=O)c1ccccc1N	8194	3.9	-17	1	12	5	4
Cc1cc(C(=O)OCC(=O)c2c(N)n(C)c(=O)n(C)c2=O)c(C)n1-c1ccccc1	2903	1.4	-15	-4	nt	nt	-2
COc1cccc(OC)c1C(=O)OCC(=O)NC(=O)NCc1ccccc1	4470	2.0	-17	7	3	12	-3
c1ccc(-c2nc3ccccc3nc2-c2ccccn2)nc1	22188*	2.4	-3	-2	-2	0	1
COc1ccccc1NC(=O)CSc1nc2ccccc2c(=O)n1CC1CCCO1 (centres undefined)	3414	2.7	-14	-16	10	12	19
CCN1CCCC1CNC(=O)c1ccc2c(=O)n(CCOC)c(=O)[nH]c2c1 (centres undefined)	3782	4.4	-9	1	2	10	3
O=C(NC1CCCC1)c1cc(S(=O)(=O)N2CCOCC2)c(Cl)cc1Cl	4764	0.9	6	1	7	6	6
COc1cc(CN2CCN(C(=O)CC(C)C)CC2)c([N+](=O)[O-])cc1OC	3780	4.7	-8	5	0	-1	8
Cc1ccc(S(=O)(=O)N(C)c2c(C)ccc(S(=O)(=O)NC(C)(C)C)c2C)cc1	4655	6.4	82*	5	6	5	-1
Nc1c(C(=O)NCc2ccco2)nnn1CC(=O)Nc1ccc2c(c1)OCO2	4031	2.0	-23	3	-4	2	18
O=C(NC1CCCC1)C(c1ccccn1)N(C(=O)c1csnn1)C1CCCC1 (centres undefined)	3213	5.7	3	-7	4	6	11
O=C(COC(=O)[C@@H]1CC(O)CN1S(=O)(=O)c1ccc2c(c1)OCCO2)NCc1ccc(F)cc1 (some centres undefined)	4122	3.1	-22	0	-13	-10	3
O=C(NCCN1CCN(c2ccccc2)CC1)C1CCCN(S(=O)(=O)c2cnc[nH]2)C1 (centres undefined)	5803	4.5	-14	1	nt	nt	6
FC(F)(F)c1cc(-c2cccs2)nc(NCc2ccco2)n1	3774	1.4	0	1	3	-1	-4
CCN(CC)S(=O)(=O)N1CCC(C(=O)N2CCC3(CC2)OCCO3)CC1	3198	4.7	-21	-7	0	9	9
O=C1c2ccccc2C(=O)N1Cc1nc2ccccc2c(=O)n1Cc1ccco1	nt	2.6	nt	3	2	1	-5
COc1ccc(CCN=Cc2ccccc2O)cc1OC	5513	4.8	-13	-7	-1	4	3
COc1ccc(-c2cc(=O)oc3cc(OC(C)C(=O)NC(Cc4c[nH]c5ccc(O)cc45)C(=O)O)ccc23)cc1 (centres undefined)	3990	3.3	-48	-2	nt	nt	-10
O=C(COc1ccccc1)N1CCN(S(=O)(=O)c2cccc([N+](=O)[O-])c2)CC1	4372	1.2	-6	-15	7	13	11
O=C(NCc1ccco1)C(=O)c1c[nH]c2ccccc12	2545	6.7	-31	-6	14	12	6
Cc1cc(C)n(-c2ccc(Cl)c(C(=O)Nc3cc(C(F)(F)F)ccc3Cl)n2)n1	2237	3.4	-2	-12	2	2	-9
Cc1ccnc(N2CCC(C(=O)NCc3ccc4c(c3)OCO4)CC2)n1	20911*	-2.5	-4	7	-10	9	-5
CC1CCCCN1c1nnc(NC(=O)c2cc(-c3ccc(Br)cc3)on2)s1 (centres undefined)	5965	36	0	1	-10	8	34
CCOC(=O)c1[nH]c(C)c(C(=O)Nc2ccccc2F)c1C	11036	4.2	-34	10	5	4	8
Cc1noc(NS(=O)(=O)c2ccc(NC(=O)COc3ccccc3)cc2)c1C	22340*	1.7	7	4	4	15	-4
CN1CCN(CCC(=O)Nc2ccc(F)c(F)c2)CC1	3206	-2.3	-22	0	3	9	0

Reprinted from the part before: 2 compounds; new compounds follow.
SMILES	Autofluor counter	RN4220 kill	PrP UTR inh	BJeLR viability	Mtb hypoxia inh	Mtb hypoxia inh growth	ugtP null kill
Cc1noc(NS(=O)(=O)c2ccc(NC(=O)COc3ccccc3)cc2)c1C	22340*	1.7	7	4	4	15	-4
CN1CCN(CCC(=O)Nc2ccc(F)c(F)c2)CC1	3206	-2.3	-22	0	3	9	0
Cc1ccc(S(=O)(=O)n2[nH]c(=O)c(CCO)c2C)cc1	5479	3.1	-25	4	7	-1	-1
CCc1ccc(C(=O)N2CCN(c3ccc(NC(=O)c4cccnc4)cc3)CC2)cc1	4439	-1.2	-2	3	10	11	13
O=C(CNC1CCN(Cc2ccccc2)CC1)Nc1ccc(S(=O)(=O)N2CCCCC2)cc1	5041	1.9	-25	2	-2	-2	9
Cc1nc(SCC(=O)Nc2c(C)n(C)n(-c3ccccc3)c2=O)nc(C)c1C	2317	3.3	-21	-5	7	-3	-4
O=C(NC(=S)Nc1nc2c(s1)CCCC2)c1ccc(C(=O)c2ccccc2)cc1	2001	1.7	11	-2	11	12	-14
O=C(Nc1ccc(F)cc1)Nc1nnc(Cc2ccccc2)s1	4125	1.6	-26	-8	2	7	-7
COc1cccc(-c2nnc3sc(C4CCCCC4)nn23)c1	5030	5.9	-1	2	1	-4	-18
COc1ccc(CC(=O)Nc2cccc(C(=O)O)c2C)cc1	8400	0.1	-12	-16	-4	-12	0
O=C(NCc1ccco1)c1nc(-c2ccccc2)n(-c2ccccc2)n1	8660	2.3	-11	-14	3	-5	3
COc1ccc(CCNC(=O)c2cccnc2SC)cc1	3956	1.8	-12	nt	14	4	7
CSc1ccc(/C=N\Nc2nncn2N)cc1	3739	nt	-39	-6	nt	nt	nt
O=C(CNC(=O)c1ccc(Br)cc1)c1ccccc1	3826	3.3	-59	-8	4	10	8
Cc1ccc(-c2nc(CSCC(=O)Nc3cc(C)on3)c(C)o2)cc1	5382	5.1	-17	-3	1	0	5
O=c1[nH]c2ccccc2n1C1=CCCC1	3703	-2.4	-19	-3	nt	nt	-5
CCSc1nc(=S)cc(C)[nH]1	3825	-5.6	-19	0	1	5	21
O=C(COc1coc(CN2CCc3ccccc3C2)cc1=O)Nc1ccc(F)cc1	nt	-0.1	-22	16	-2	-4	6
COC(=O)CNC(=O)CNC(=O)c1nn(-c2ccc(OC)c(OC)c2)c(=O)c2ccccc12	3737	2.0	-15	1	2	-11	8
O=C(c1cc2ncc(Br)cn2n1)N1CCOCC1	24596*	1.5	4	5	6	15	3
O=C(NCc1ccccc1)N1CCN(c2ccc(F)cc2)CC1	4561	-2.5	-12	-4	13	14	3
COc1ccc(CCNC(=O)c2ccccc2C(=O)NCCc2ccc(OC)cc2)cc1	5910	-4.9	-20	-8	-4	-5	-7
O=S(=O)(c1ccccc1)c1nc(NCc2ccccc2)sc1Cl	10966	1.5	-22	-2	3	-4	3
Cc1ccc(S(=O)(=O)CCc2nnc(NC(=O)CCl)s2)cc1C	4553	9.0	-45	2	19	13	9
O=C(NC1CCCC1)c1cc2cc(Br)ccc2o1	7185	4.5	-86	3	nt	nt	2
O=S(=O)(NCc1ccccc1)NCc1ccc(Cl)cc1Cl	3600	6.4	-11	-3	5	0	-7
CC1(C)CC(NC(=O)COc2ccc(Br)cc2Cl)CC(C)(C)N1	6544	2.2	-1	9	-1	0	3
c1ccc(CN(Cc2ccccc2)c2ncnc3c2nnn3Cc2ccccc2)cc1	5739	-5.6	nt	-7	-4	9	50
Cc1cccc(-n2ncc3c(Nc4c(C)n(C)n(-c5ccccc5)c4=O)ncnc32)c1	9554	6.4	-1	5	5	2	1

Outcome played no part in choosing rows; overall some 4% were active at least once.
